Bioassay records: PubChem BioAssay, National Center for Advancing Translational Sciences (NCATS)
StopGo RLuc = Primary qHTS Assay for Foot and Mouth Disease Virus Antivirals against NCGC Sytravon and CBC Compound Libraries: Renilla Luciferase Signal; HEK cells with a luciferase reporter of 2A StopGo recoding; Potency, µM (series often up to 57.5 µM), inactives show at the top dose signal change, negative = less light; hit rate 0.32% among 120,000; AID 1745857, 2022; active means well fitted falling curve with a large enough effect; inconclusive means small, poorly fitted or top-dose-only effect; inactive means no such curve, though single readings can be large or run the other way; further: nearly all actives have a fitted effect of over 55% in size; overnight with compound
StopGo FLuc = Primary qHTS Assay for Foot and Mouth Disease Virus Antivirals against NCGC Sytravon and CBC Compound Libraries: Firefly Luciferase Signal; HEK cells with a luciferase reporter of 2A StopGo recoding; Potency, µM (series often up to 57.5 µM), without a hit: at the highest dose signal change, negative = less light; hit rate 0.23% among 120,000; AID 1745856, 2022; active = well fitted falling curve with a large enough effect; inconclusive = small, poorly fitted or top-dose-only effect; inactive = no such curve, though single readings can be large or run the other way; further: nearly all actives have a fitted effect of over 60% in size; overnight with compound
Numbers without * were called inactive; ? = inconclusive; & = joins results of further samples; [ ] = remark or other dose. On the % scale 0 is the no-effect control and ±100 the full control effect; potency means the concentration at half of the fitted maximal effect.

SMILES	StopGo RLuc	StopGo FLuc
Cc1ccc2nc(COc3cccc(NC(=O)COc4ccc(F)cc4)c3)cc(=O)n2c1	4%	37%[activator]
O=C(CSc1nnc(-c2cccs2)n1-c1ccccc1)Nc1ccc(Cl)cn1	1%	2%
COc1cc(OC)c2c(C)c(CC(=O)Nc3cccc(C(C)=O)c3)c(=O)oc2c1	-2%	0%
CNC(=O)c1ccc(Nc2nnc(-c3ccc(C)c(S(=O)(=O)NC(C)(C)C)c3)c3ccccc23)cc1	117%[activator]	1%
Cc1ccc(NC(=O)CCC2CCCC2)c(C)c1	5%	141%[activator]
O=C(OCC(=O)N1CCC(c2ccccc2)=N1)c1cc2c(s1)CCC2	7%	11%
N#Cc1ccc(OC(=O)c2cc(-c3ccc4c(c3)OCCO4)on2)cc1	-11%	82%[activator]
Cc1cc(C)c2c(=O)n(CC(=O)N3CCCC(C)C3)c(=O)n(-c3ccccc3)c2n1 (stereo unspecified)	3%	0%
CC(=O)N[C@@H](Cc1c[nH]c2ccccc12)C(=O)NC1CCCCCC1	13%	29%
CCOC(=O)c1noc2ncnc(Nc3cc(Cl)c(OC)cc3OC)c12	-7%	-12%
CCCNc1c(NC(=O)c2ccco2)c(=O)oc2ccccc12	-1%	-4%
Cc1ccc(-c2nc3nc(C)cc(Nc4ccccc4O)n3n2)cc1	-4%	79%[activator]
CCOc1ccc(NC(=O)CC2C(=O)N(c3cccc(C)c3)C(=O)N2Cc2cccs2)cc1 (stereo unspecified)	123%[activator]	-2%
CCn1cnc2c1c(=O)n(CC(=O)Nc1c(C)cc(C)cc1C)c(=O)n2Cc1ccccc1	0%	-2%
COc1ccccc1NS(=O)(=O)c1cc(C(=O)N2CCc3sccc3C2)ccc1C	84%[activator]	-15%
CCCCNC(=O)CCn1c(=O)c2ccccc2n(Cc2ccccc2C#N)c1=O	2%	-14%
Cc1ccc(NC(=O)C(=O)NCc2ccco2)cc1	-5%	161%[activator]
Cc1ccccc1-c1nc(CSCC(=O)NCc2cccs2)c(C)o1	26%	66%[activator]
N#Cc1nc(COc2ccc(Br)cc2)oc1NCCCN1CCOCC1	-7%	-3%
Cc1[nH]c2ccc(C(=O)N3CCN(c4ccccc4F)CC3)cc2c1C	53%[activator]	-5%
CCOc1ccc(NC(=O)c2ncoc2-c2ccco2)cc1	4%&30%	9%
O=C(Nc1ccc2oc(=O)ccc2c1)c1cccc2ccccc12	-1%	0%
COc1ccc(NC(=O)c2ccco2)cc1NC(=O)COc1cccc(C)c1C	-6%	-3%
CC(C)CNC(=O)c1ccc(NC(=O)C2CCCCC2)cc1	-2%	0%
COc1ccccc1C1C(C#N)=C(N)OC2=C1C(=O)CC(c1ccccc1)C2 (stereo unspecified)	0%	24%

The final five records of the section before lead into the next:
SMILES	StopGo RLuc	StopGo FLuc
CCOc1ccc(NC(=O)c2ncoc2-c2ccco2)cc1	4%&30%	9%
O=C(Nc1ccc2oc(=O)ccc2c1)c1cccc2ccccc12	-1%	0%
COc1ccc(NC(=O)c2ccco2)cc1NC(=O)COc1cccc(C)c1C	-6%	-3%
CC(C)CNC(=O)c1ccc(NC(=O)C2CCCCC2)cc1	-2%	0%
COc1ccccc1C1C(C#N)=C(N)OC2=C1C(=O)CC(c1ccccc1)C2 (stereo unspecified)	0%	24%
COc1ccc(C)cc1S(=O)(=O)N1CCN(c2cccc(Cl)c2)CC1	0%	-10%
COc1ccc(CNC(=O)c2cc(C)nc3ccccc23)cc1OC	-1%	11%
O=C(NCC(=O)N1CCN(CC(=O)N2CCOCC2)CC1)c1ccc(N2CCCC2=O)cc1	1%	17%
CCCCCn1nc(C(=O)Nc2nc3ccccc3[nH]2)c2ccccc2c1=O	5%	14%
Cc1ccc2[nH]cc(CCNC(=O)c3ccccc3)c2c1	32%[activator]	51%[activator]
O=C(c1ccc(Br)s1)N(Cc1cccnc1)c1nc2c(F)cccc2s1	-3%	28%
CCC1=Nc2cc(C(=O)NC3CCCC3)ccc2Sc2ccc(Br)cc21	-10%	-28%
CSc1nc(=O)c2c(n1C)NC(=O)CC2c1cc(C)ccc1C (stereo unspecified)	2%	13%
CCCCOc1ccc(/C=C/C(=O)c2ccc(Br)cc2)cc1	-4%	6%
CC(=O)[C@H]1CC[C@H]2[C@@H]3CC[C@H]4C[C@](C)(O)CC[C@]4(C)[C@H]3CC[C@]12C	0%	-8%[11.5 µM]
CN1C(=S)SC(C)(C)C1/[N+]([O-])=C/c1ccco1 (stereo unspecified)	13%	-2%
CCCC(=O)Nc1ccc(-c2nc3cc(C(C)C)ccc3o2)cc1	-7%	165%[activator]
Cc1nn(-c2ncnc3nc[nH]c23)c2c1C(c1ccc(F)cc1F)CC(=O)N2 (stereo unspecified)	-4%	-5%
CC(/C=N/NC(=O)C1CCCCC1)c1ccccc1 (stereo unspecified)	9%	9%
CCS(=O)(=O)c1ncc(N(Cc2ccco2)Cc2sccc2C)c(C(=O)Nc2cc(C)ccc2C)n1	66%[activator]	9%
O=C(Nc1nnc(S(=O)(=O)N2CCOCC2)s1)c1cccc(F)c1	97%[activator]	134%[activator]
COc1ccc(Cl)cc1NC(=O)CSC1=Nc2ccccc2C2=NC(CC(=O)NCc3ccc4c(c3)OCO4)C(=O)N12 (stereo unspecified)	1%	-5%
COc1ccccc1Cn1cc(C(=O)c2ccc(F)cc2)c(=O)c2cc3c(cc21)OCO3	-6%	-9%
O=C1c2ccccc2NC(c2ccc(Cl)cc2)N1c1ccc(O)cc1 (stereo unspecified)	3%	9%
Cc1ccc(C)c(-c2[nH]c3c(c2-c2c(-n4cccc4)n(C)c(=O)n(C)c2=O)c(=O)n(C)c(=O)n3C)c1	-17%	-17%
COc1ccc(C(=O)NC2(C(F)(F)F)NC(=O)N(c3ccc(Cl)cc3)C2=O)cc1OC (stereo unspecified)	-9%	4%
CN(C)C(=O)c1cc(=O)c2cc(Cl)ccc2o1	-4%	4%
CN(C)S(=O)(=O)c1cccc(C(=O)Nc2cccc(Oc3ccccc3)c2)c1	15%	?
Cc1cc(C)n(-c2nc3c(c(=O)n(CC(N)=O)c(=O)n3C)n2CCC(C)C)n1	3%	-13%
COC(=O)Nc1ccc(C)c(C)c1	8%	15%

More results follow:
SMILES	StopGo RLuc	StopGo FLuc
Cc1nnc(N2CCN(c3ccccc3)CC2)c2c1nnn2Cc1ccc(F)cc1	4%	-13%
Cc1cc(N2CCN(CCO)CC2)n2nc(C)c(-c3ccc(F)cc3)c2n1	-6%	-3%
Cc1ccc(S(=O)(=O)N2CCCCC2)cc1NC(=O)CSc1nnc(C2CC2)n1C1CC1	30%	8%
CC(C)OC(=O)c1nc2ccccc2nc1N1CCN(c2ccccc2)CC1	-1%	139%[activator]
CCOc1ccc(NC(=O)N(Cc2c[nH]c3ccccc23)C2CCCCCC2)cc1	-10%	47%[activator]
COc1ccccc1Oc1c(C)oc2cc(OCC(=O)Nc3cccc(NC(C)=O)c3)ccc2c1=O	14%	10%
CC(C)c1ccc(S(=O)(=O)N2CCN(C(=O)c3cncn3-c3ccc(F)cc3)CC2)cc1	2%	-9%
COc1ccc(OC)c(C2=NOC(C(=O)Nc3cc(C)nn3-c3ccccc3)C2)c1 (stereo unspecified)	55%[activator]	6%
Cn1c(COc2ccc(Cl)cc2Cl)n[nH]c1=S	10%	48%[activator]
CCOCCn1c(=O)c2c(nc(-n3nc(CC)cc3CC)n2C)n(C)c1=O	-2%	-5%
Cc1[nH]c2ccccc2c1C=O	-10%[1.06 µM]	-6%
Cc1ccc(S(=O)(=O)Cc2nc(-c3ccc(C(=O)NCc4ccccc4C)cc3)oc2C)cc1	-2%	-7%
O=C(O)CCC(=O)Nc1ccc2[nH]cc(C(C(=O)O)N3CCN(c4ccc(F)cc4)CC3)c2c1 (stereo unspecified)	7%	-5%
Cc1cc(C)c(OCC(=O)NC2=NCCS2)c(C)c1	7%	29%
Cc1ccc(C(C)C)cc1OCC(=O)N1CCN(Cc2nc(N)c3ccccc3n2)CC1	-12%	49%[activator]
CCOC(=O)CSc1nnc2n(-c3ccccc3)c(=O)c3c4c(sc3n12)COC(C(C)C)C4 (stereo unspecified)	-16%	-20%
Cc1ccc(CNC(=O)c2nc(SCc3ccccc3C)ncc2Cl)cc1	?	?
COC(=O)c1ccc(COC(=O)CCS(=O)(=O)c2ccc(F)cc2)cc1	-11%[1.06 µM]	-9%
CCn1c(COc2ccc(Cl)cc2)nnc1SCC(=O)C(C)(C)C	?	?
COc1ccccc1Oc1coc2cc(O)ccc2c1=O	9%	29%
COC(CNC(=O)CCc1c(C)nc2c(-c3ccccc3)c(C)nn2c1C)OC	13%	24%
CCc1cccc(NC(=O)Cn2c(=O)n(CCc3ccc(OC)c(OC)c3)c(=O)c3ccccc32)c1	5%	29%
Cc1ccc(C(=O)COC(=O)C2CC(=O)N(c3nc(-c4ccc(C)cc4)cs3)C2)cc1 (stereo unspecified)	-9%	-1%
COc1cccc(C(=O)Nc2ccccc2-c2nnc(-c3cc(OC)ccc3Br)o2)c1	-10%	-3%
Cc1ccoc1C(=O)Nc1ccc(-c2ccccc2)cc1	-7%	6%

Filtered by structure: the compounds so far with bromine
SMILES	StopGo RLuc	StopGo FLuc
N#Cc1nc(COc2ccc(Br)cc2)oc1NCCCN1CCOCC1	-7%	-3%
O=C(c1ccc(Br)s1)N(Cc1cccnc1)c1nc2c(F)cccc2s1	-3%	28%
CCC1=Nc2cc(C(=O)NC3CCCC3)ccc2Sc2ccc(Br)cc21	-10%	-28%
CCCCOc1ccc(/C=C/C(=O)c2ccc(Br)cc2)cc1	-4%	6%
COc1cccc(C(=O)Nc2ccccc2-c2nnc(-c3cc(OC)ccc3Br)o2)c1	-10%	-3%

More structures
SMILES	StopGo RLuc	StopGo FLuc
Cc1ccc(-n2c(=O)[nH]c3cc(C(=O)NCc4ccccc4)ccc3c2=O)cc1	-8%	2%
O=C(Cn1nc(C(=O)O)c2ccccc2c1=O)Nc1ccc(F)c(Cl)c1	-9%	-11%
O=C(CSc1c2c(nc3cc(Cl)ccc13)CCCC2)NCc1cccs1	34%[activator]	?
CCCC(=O)N1c2nc(-c3ccco3)nn2C2(CCCCC2)[C@@H]2CCCC[C@@H]21	2%&-9%	9%&-16%
O=c1c2ccccc2n(Cc2cccc(Cl)c2)c(=O)n1CCc1ccccc1	3%	11%
COc1ccc(N(C(=O)c2cccc(C)c2)S(=O)(=O)c2ccc(Cl)cc2)cc1	-6%	-24%
CCN1C(=O)c2ccccc2S(=O)c2ccc(C(=O)NCc3ccccc3OC)cc21 (stereo unspecified)	18%	22%
CN(C)c1ccc(NC2=C(C(N)=O)S(=O)(=O)c3ccccc32)cc1	12%	105%[activator]
COc1ccc(C(=O)COC(=O)CCC(=O)c2cc(C)sc2C)c(OC)c1	-3%	-1%
CC(Oc1ccc(Br)cc1)C(=O)N(Cc1nc(-c2ccccc2)no1)C(C)C (stereo unspecified)	?	?
Cc1cccc(N2CCN(C(=O)c3ccc4c(c3)N(Cc3ccccc3F)C(=O)c3ccccc3S4=O)CC2C)c1 (stereo unspecified)	?	?
N#Cc1ccc(N2CCC(C(=O)NCCc3cccs3)CC2)nc1	-10%	49%[activator]
CCC1CCCCN1CCCNC(=O)c1ccc2c(c1)N(Cc1cccc(C)c1)C(=O)c1ccccc1S2(=O)=O (stereo unspecified)	54%[activator]	-13%
CCOC(=O)c1cccc(NC(=O)c2cnn(-c3ccccc3)c2-n2cccc2)c1	-9%	-8%
CCc1ccc(Nc2nnc(SC(C)C#N)s2)cc1 (stereo unspecified)	0%	102%[activator]
CCCCNC(=O)C1CCC(CNS(=O)(=O)c2ccc(C)cc2)CC1 (stereo unspecified)	6%	-17%
Cc1csc2nc(CSc3ccc(Cl)cc3)c(Br)n12	26%	208%[activator]
CCOC(=O)c1c(NC(=O)CSc2cn(CCNC(=O)c3ccc(OCC)cc3)c3ccccc23)sc2c1CCC2	14%	10%
CC(=O)NCCNC(=O)CCc1ncc(-c2ccccc2F)o1	-7%	42%[activator]
O=C1NC(c2ccccc2Br)=N/C1=C\c1ccc2c(c1)OCO2	6%	0%
COc1ccccc1NC(=O)C1=C(C)Nc2nc(CCCO)nn2C1c1cccc(O)c1 (stereo unspecified)	-11%	0%
Cc1ccc2nc(COc3ccc(NC(=O)COc4ccccc4F)cc3)cc(=O)n2c1	-8%	1%
CCCNC(=O)c1ccc2c(=O)n(CCc3ccccc3)c(SCC#N)nc2c1	-2%	3%
COc1cc(OC)c(NC(=O)CC(c2cccs2)N2Cc3ccccc3C2=O)cc1Cl (stereo unspecified)	292%[activator]	-2%
Cc1ccc(NC(=O)CCN2CCN(CCO)CC2)cc1C	-9%	-14%

(list continues)
SMILES	StopGo RLuc	StopGo FLuc
COc1cccc(CN2C(=O)c3ccccc3Sc3ccc(C(=O)OCc4ccco4)cc32)c1	0%	4%
O=C(COC(=O)c1ccc(N2CCCC2=O)cc1)c1ccc2c(c1)CCCC2	-8%	1%
CCN1C(=O)c2ccccc2NC1c1cc2ccccc2[nH]c1=O (stereo unspecified)	-4%	9%
CCCC(C(=O)NCCc1ccccn1)c1ccccc1 (stereo unspecified)	0%	0%
CC(=O)Nc1ccc(S(=O)(=O)NCC2CCC(C(=O)NCCN(CC(C)C)CC(C)C)CC2)cc1 (stereo unspecified)	-7%	-13%
COc1cccc2cc(-c3cc(=O)oc4ccc(C)cc34)oc12	-2%	2%
CC(=O)NC(CC(=O)Oc1ccc(-c2ccc(C#N)cc2)cc1)c1ccc(C)cc1 (stereo unspecified)	28%	23%
COc1cccc(NC(=O)CSc2nc(=O)n(Cc3ccco3)c3c2CCC3)c1	255%[activator]	-10%

Not all compounds are listed; the hit share may differ from the screen's.
